Calb biofilm kill: clotrimazole potentiators killing C. albicans biofilm, primary screen, 4-compound mixtures; AID 1242, 2008; inhibition, % at 7.6 µM; C. albicans biofilm persisters + clotrimazole, fluorescence viability; primary screen in compound mixtures of four per well; 120,000 compounds, 0.02% hits;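 active means inhibition above 30.3% in the primary screen of four-compound pools, then above 30% when the compound was retested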;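 further: compounds exposed to preformed 24 h biofilms for 48 h; the number belongs to the whole pool; some results filed as inactive read as strong as hits; inactives centre near 12; 0% = biofilm with clotrimazole alone and 100% = kill control; retested singly at about 60 µM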
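Probe or stimulus – Clotrimazole 50 µg/mL co-treatment · System – C. albicans biofilms · Schedule – 24 h biofilm formation, then 48 h compound exposure, 37 °C · Evaluation – percent inhibition of biofilm viability · Technique – 2-h Alamar Blue fluorescence, 535/590 nm excitation/emission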
An asterisk follows results filed as active. A portion of the library. The share of hits here may be higher or lower than overall.

structure	Calb biofilm kill
Cc1nn(C)cc1/C=N/NC(=O)Cn1nnc(N)n1	9.2
Cc1ccccc1OCCCCn1c(CO)nc2ccccc21	17.4
COc1ccccc1NC(=O)c1cc(C(=O)Nc2ccccc2OC)cc(N2C(=O)CCC2=O)c1	7.8
O=C(N/N=C1\SCC(=O)N1CCc1ccccc1)c1cccs1	20.3
CCOC(=O)c1cn2nc(N3CCCCC3)ccc2n1	12.0
COCCNC(=O)/C(C#N)=C/c1c(N2CC(C)OC(C)C2)nc2ccccn2c1=O (stereo unspecified)	4.7
O=c1[nH]nc(CNc2ccc(OC(F)(F)F)cc2)c2ccccc12	7.0
O=C(NNC(=S)Nc1ccccc1)c1ccc(O)cc1	15.3
C=CCC1(Cl)C(=O)C(Cl)=C(N2CCOCC2)C1(OC)OC (stereo unspecified)	15.8
Cc1cccc2cc(/C=N/NC(=O)CN3CCCCC3)c(Cl)nc12	18.0
COc1ccccc1/C=N/NC(=O)C(=O)N1CCN(c2ccccc2OC)CC1	7.0
CC1=CC(=O)C=C(C)C1=NOc1ccc([N+](=O)[O-])cc1	11.7
Cn1c(NC(=O)/C=C/c2ccco2)cc(=O)n(C)c1=O	17.6
O=C(NCc1ccco1)C(=O)N1CCCC1	1.7
COc1ccc(OCCNC2CCCC2)cc1	10.7
CCOC(=O)c1cnn(Cc2ccccc2)c1N	6.3
O=c1[nH]c(/C=C/c2ccc(OC(F)F)cc2)nc2c1cnn2-c1ccccc1	2.9
O=C(COC(=O)c1ccc[nH]c1=O)NC1CCCc2ccccc21 (stereo unspecified)	16.8
O=C(CSc1nc2ccc(NC(=O)CSc3nnnn3-c3ccccc3)cc2s1)Nc1ccccc1	17.8
CN(C)/C=C/C(=O)/C=C/c1ccc(Cl)cc1	22.3
Cc1c(C(=O)Nc2nnc(SCc3ccccc3Cl)s2)cccc1[N+](=O)[O-]	11.1
Cc1ccc(CNc2ccc(S(=O)(=O)N3CCOCC3)cc2[N+](=O)[O-])cc1	7.8
COc1ccccc1NC(=O)COc1ccc(C(=O)OCC(=O)NC(C)(C)C)cc1OC	11.6
COc1ccc(N=Cc2c(O)c3ccccc3oc2=O)cc1	8.5
CN(C)c1nc(SCC(=O)Nc2ccccc2)nc(N2CCOCC2)n1	22.5
Cc1oc(C(C)(C)C)cc1C(=O)NC1CCN(Cc2ccccc2)CC1	14.8
O=C(CSc1ncccn1)N/N=C/c1cccc([N+](=O)[O-])c1	12.1
Fc1ccc(-c2[nH]ncc2CN2CCN(c3ccc(F)cc3)CC2)cc1	19.3
CC1=NNC(=O)C1CC(=O)N/N=C(\C)c1ccco1 (stereo unspecified)	16.4
Oc1ccccc1CNc1ccc(OC(F)(F)F)cc1	10.1

Part of the list above, field by field.
> COc1ccccc1NC(=O)COc1ccc(C(=O)OCC(=O)NC(C)(C)C)cc1OC
- Calb biofilm kill = 11.6
> O=C(COC(=O)c1ccc[nH]c1=O)NC1CCCc2ccccc21 (stereo unspecified)
- Calb biofilm kill = 16.8

Next entries:
structure	Calb biofilm kill
O=C(Cc1cccc2ccccc12)N1CC[C@@]2(O)CCCC[C@H]2C1	17.6
Cn1nnc(NC(=O)c2ccc3ccccc3c2)n1	9.1
COCC(=O)Nc1ccccc1Br	11.1
O=C(NN1C(=O)c2ccccc2NC1c1ccccn1)c1ccccc1 (stereo unspecified)	21.3
O=C(c1cccs1)N1CCN=C1SCc1cccc(F)c1	17.9
COc1ccccc1/C=C(/CC(=O)NCc1ccc(F)cc1)c1nc2ccccc2s1	7.3
O=C(/C=C/c1cccs1)NC(=S)Nc1ccc(C(=O)O)cc1	21.1
COc1ccccc1OCC(=O)NNC(=O)c1ccoc1C	8.4
CC(NC(=O)C(=O)NN=C1CCCC1)c1ccccc1 (stereo unspecified)	18.9
Cc1ccc(C(=O)NN2C(=O)CSC2=S)cc1	8.7
Nc1cc2sc(-c3ccc(C(=O)O)cc3)nc2cc1Cl	10.3
Cc1ccc(S(=O)(=O)N(C(=O)c2ccncc2)c2ccc(OC(=O)c3ccncc3)c3ccccc23)cc1	17.4
CCOC(=O)c1c(-n2cnnn2)sc2c1CCCC2	26.6
Cc1ccc(OCC(=O)N/N=C2/SCC(=O)N2Cc2ccco2)cc1	6.0
Cc1cccc(C)c1NC(=S)N(CCN(C)C)C(C)c1cccnc1 (stereo unspecified)	-1.1
CC12CCC(C(=O)N(CC(=O)O)C1=O)C2(C)C (stereo unspecified)	-4.6
CCOC(=O)C1=C(CS(=O)(=O)c2ccccc2)NC(=O)NC1c1ccc(O)c(OC)c1 (stereo unspecified)	20.8
O=C(NC1CC1)C1=C[C@H](c2ccc3c(c2)OCO3)C[C@H](OCc2ccc(CO)cc2)O1	20.6
CCN(CC)S(=O)(=O)c1ccc(N/N=C/c2cc(OC)c(OC)cc2OC)nc1	15.3
CCC(C)(C)NC(=O)c1cc([N+](=O)[O-])ccc1N1CCCCC1	7.5
O=C(CSc1n[nH]c(=O)n1-c1ccccc1)Nc1ccccc1	11.9
O=S(=O)(c1ccc(OCC(O)CNC23CC4CC(CC(C4)C2)C3)c(Cl)c1)N1CCOCC1 (stereo unspecified)	16.4
CNC(=O)COC(=O)/C=C/c1ccco1	6.3
Cc1cccc(NC(=O)C2CCCN(S(=O)(=O)c3ccc4c(c3)oc(=O)n4C)C2)c1 (stereo unspecified)	22.9
CC(C)C(NC(=O)c1ccc(F)cc1)C(=O)OCC(=O)N1CC(=O)Nc2ccccc21 (stereo unspecified)	5.8
CC1CCN(C(=O)Oc2ccccc2)CC1	14.8
COCc1cc(C)nc(N/N=C/c2ccc(Cl)c(Cl)c2)c1C#N	15.6
CC(C)CCN1CCN(Cc2cn[nH]c2C2CCCCC2)CC1CCO (stereo unspecified)	10.8
COc1ccc(CN2CCOCCOCCOCCOCC2)cc1	11.1
Cc1sc2ncnc(Sc3ccccc3C(=O)Nc3ccc(Br)cc3)c2c1C	13.2

Shown with each value named: entries from further up
Compound: COCc1cc(C)nc(N/N=C/c2ccc(Cl)c(Cl)c2)c1C#N
  Calb biofilm kill: 15.6
Compound: Cc1ccc(OCC(=O)N/N=C2/SCC(=O)N2Cc2ccco2)cc1
  Calb biofilm kill: 6.0
Compound: O=C(NC1CC1)C1=C[C@H](c2ccc3c(c2)OCO3)C[C@H](OCc2ccc(CO)cc2)O1
  Calb biofilm kill: 20.6
Compound: Nc1cc2sc(-c3ccc(C(=O)O)cc3)nc2cc1Cl
  Calb biofilm kill: 10.3

(further entries)
molecule | Calb biofilm kill
CN1CCN(Cc2nc(Cc3cccc(F)c3)no2)CC1c1ccccc1 (stereo unspecified) | 18.8
COC(=O)/C(=C/c1cn(C(C)=O)c2ccccc12)[N+](=O)[O-] | 17.2
CC1(C)Cc2c(sc3c2c(=O)n(-c2ccc(Cl)cc2)c(=O)n3CC(N)=O)CO1 | 21.5
CCc1ccccc1NC(=O)CSc1nnc(CCNC(=O)OC(C)(C)C)o1 | 24.5
CC(C)OCCCn1c(-c2ccc(Br)cc2)c[nH]c1=S | 15.8
Cc1ccc(S(=O)(=O)Oc2cccc(/C=N/n3cnnc3)c2)cc1 | 10.8
Cc1cc(N)n2nc(C(F)(F)F)nc2n1 | 6.6
COc1cc2c3nnc(-c4ccccc4)c-3cn(Cc3ccc(F)cc3)c2cc1OC | 12.7
O=C1CCCc2ccccc2N1Cc1ccccc1 | 8.9
CN(Cc1ccccc1)S(=O)(=O)c1ccc(Cl)c(C(=O)OCC(N)=O)c1 | 4.0
COc1ccc(Cc2nnc(SCc3ccc([N+](=O)[O-])cc3)o2)cc1 | 9.6
O=C(NCc1cccs1)c1cccnc1Cl | 15.3
Cc1ccc(S(=O)(=O)NCCCNc2ccc([N+](=O)[O-])cc2)cc1 | 24.2
C/C(CC(=O)NC(C)(C)C)=N\NC(=O)c1ccccc1N | 17.1
O=C1c2ccccc2C(=O)N1CCCCN(C(=O)c1cc([N+](=O)[O-])ccc1Cl)c1ccc(Cl)cc1 | 8.2
OCCC1CN(C2CSCCSC2)CCN1Cc1ccccc1 (stereo unspecified) | 17.0
CSc1nnc(-c2ccc(C(F)(F)F)nc2C)o1 | 17.4
CC1(C)CC(=O)C=C(NNC(=O)C2CCCCC2)C1 | 13.2
NC(=O)CSc1nnc2ccc(-c3ccco3)nn12 | 16.2
N#C/C(=C\c1cccs1)C(=O)NCc1ccccc1 | 10.8
CS(=O)(=O)c1cccc(NC(=O)C2CC2)c1 | 11.5
O=C(Nc1nnc(Cc2ccccc2)s1)c1cnccn1 | 16.6
CCOc1ccc(C(=O)c2cnc3ccccc3c2N2CCN(CC)CC2)cc1 | 9.2
Cc1cccc(N2CCN(S(=O)(=O)c3cccc4nonc34)CC2)c1C | 11.2
CCOC(=O)c1cnn(CCOC(=O)c2ccc(F)cc2)c1NC(=O)c1ccc(F)cc1 | 3.9
CCN1CCN(CCNC(=O)c2ccc(/C=C3/Sc4ccccc4N(Cc4cccc(C)c4)C3=O)cc2)CC1 | 9.0
Cc1cccc(NC(=O)c2n[nH]c([N+](=O)[O-])c2Br)c1C | 6.8
COc1ccc(CNC(=O)CNS(=O)(=O)c2ccc(Cl)cc2)cc1 | 16.4
Cc1c(-c2ccccc2)[nH]n2c(=O)c3c(nc12)CCCC3 | 18.6
CC(=O)Oc1ccc(C(c2ccc(OC(C)=O)cc2)c2ccccn2)cc1 | 6.2
CCOC(=O)C1C(=O)C=C(c2cccc(NS(C)(=O)=O)c2)CC1c1ccco1 (stereo unspecified) | 7.5
CN(C)CCN1C(=O)C2C3C=CC(C3)C2C1=O (stereo unspecified) | 17.4
Cc1[nH]c2ccccc2c1C(=O)CSc1nc2ncc(Cl)cc2[nH]1 | 4.7
CCc1ccccc1N/C(=N\S(=O)(=O)c1ccccc1)C(F)(F)F | 6.4
CCOC(=O)NC(=O)c1cn(Nc2ncc(Cl)cc2C(F)(F)F)c(=O)[nH]c1=O | 17.2
O=C(CSc1cccc[n+]1[O-])c1cccs1 | -5.7
CC(C)C/C=C1\CCc2c([nH]c3ccccc23)C1=O | 11.2
COCCOC(=O)C1=C(C)Nc2cc(=O)[nH]c(=O)n2C1c1cccc([N+](=O)[O-])c1 (stereo unspecified) | 9.1
FC(F)(F)c1cccc(-c2ccn3ncnc3n2)c1 | 6.3
CCO[C@H]1OC(C(=O)N2CCN(Cc3ccc4c(c3)OCO4)CC2)=C[C@@H](C(C)(C)C)[C@@H]1CCCO | 19.9
O=C(/C=C/c1ccccc1)N1CCN(S(=O)(=O)c2ccc(F)cc2)CC1 | 9.6
O=C(NCc1ccccc1)c1onc(CSc2ccc(Cl)cc2)c1C(=O)NCc1ccccc1 | 12.0
O=C(NCCN1CCOCC1)c1sc2ccccc2c1Cl | 8.7
COc1ccc(CN2C(=O)CS/C2=N/N=C/c2cccs2)cc1 | 26.4
CCNC(=S)Nc1cc(OCC)c(NC(=O)c2cccs2)cc1OCC | 19.1
CCn1c(SCC(=O)NCc2ccccc2)nc2nc3c(cc2c1=O)CCCC3 | 4.3
CC1CN(C(=O)c2cc3ccccc3oc2=O)CC(C)O1 (stereo unspecified) | 4.8
COc1ccc(CNC(=O)COC(=O)/C=C/c2ccco2)cc1 | 13.5
Cc1ccc(SCc2c(C(=O)N/N=C/C3CC=CCC3)nnn2-c2nonc2N)cc1 (stereo unspecified) | 15.1
Nc1nnc(CC(=O)N/N=C\c2ccc(-c3cccc(Cl)c3)o2)s1 | 10.4
CC(=O)c1c(C)[nH]c(-c2ccccc2)c1C | 9.5
COc1ccc(CCNS(=O)(=O)c2ccc(C3CNC(=O)C3)cc2)cc1OC (stereo unspecified) | 7.9
OCCN1CCN(C(=S)Nc2ccc(Oc3ccccc3)cc2)CC1 | 18.0
COCc1cc(C)nc(SCC[N+](C)(C)CC(=O)c2ccccc2)c1C#N | 17.4
COc1ccc(-n2c(C)cc(/C=C3\C(=O)NN(c4ccccc4)C3=O)c2C)cc1 | 11.3
CC(C)(C)N1CCC1CN (stereo unspecified) | 9.9
N#Cc1ccccc1NC(=O)COC(=O)CCc1ccc(S(=O)(=O)N2CCCCC2)cc1 | -4.2
COc1ccccc1CC(=O)Nc1ccc2c(c1)C(=O)NC2=O | -32.9
O=C(COC(=O)/C=C/c1ccccc1Cl)NCc1ccco1 | -7.2
Cn1c(=O)[nH]c(=O)c2c1nc(N1CCCCCC1)n2CCSc1nc2ccccc2o1 | 13.8

(next part)
molecule | Calb biofilm kill
N#Cc1ccc(CSc2nnc(-c3ccncc3)o2)cc1 | 11.4
COc1ccc(CC(=O)Nc2ccc(C(=O)Nc3ccccc3C(=O)O)cc2)cc1OC | 8.5
COC(=O)c1ccc(Cn2nc(C)c([N+](=O)[O-])c2C)o1 | 4.1
Cc1ccc(F)cc1NC(=O)N1CCCN(c2ccc(C(F)(F)F)cn2)CC1 | 7.0
CC(C)CCNC(=O)c1c[nH]c2ccc(S(=O)(=O)N3CCC4(CC3)OCCO4)cc2c1=O | 14.4
NC(=O)c1ccc(Oc2ccc(Cl)c3ccccc23)c([N+](=O)[O-])c1 | 7.7
CCc1ccc(N2CC(O)=C(c3nc4ccccc4c(=O)[nH]3)C2=N)cc1 | 27.3
O=C(NCc1cccc(F)c1)C1CCN(C(=O)c2sccc2-n2cccc2)CC1 | 15.0
Cc1cc(C)cc(C(=O)OCC(=O)Nc2cccc(S(=O)(=O)NC3=NCCCCC3)c2)c1 | 3.2
CCOC(=O)C1=C(C)OC2(O)c3ccccc3C(=O)C12O (stereo unspecified) | 29.2
Cc1sc2ncnc(OCC(=O)N3CC(=O)Nc4ccccc43)c2c1C | 6.2
COc1ccc(N2C(=O)CC(NCCNc3ccc([N+](=O)[O-])cn3)C2=O)cc1 (stereo unspecified) | 4.4
CCOC(=O)c1c(NC(=O)C2=C(C)NC(=S)NC2c2ccc(CC)cc2)sc(C)c1C (stereo unspecified) | 16.2
